# Screens as filed in PubChem.
# KCNQ2 block = KCNQ2 potassium channel inhibitors, primary screen, cell-based, CHO-K1, FluxOR thallium flux, B-score (AID 2156); O88943; 20 min; hits give low values; only compounds with negative scores are shown here; some inactives read as strong as hits; B-score at 10 µM; 310,000 tested, 1.1% active;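 active = fluorescence ratio B-score at most minus 3 library SDs, with starting brightness B-score within 2 library SDs, cut at about -5.5 in these data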
# Target sequence (O88943 whole entry, looked up): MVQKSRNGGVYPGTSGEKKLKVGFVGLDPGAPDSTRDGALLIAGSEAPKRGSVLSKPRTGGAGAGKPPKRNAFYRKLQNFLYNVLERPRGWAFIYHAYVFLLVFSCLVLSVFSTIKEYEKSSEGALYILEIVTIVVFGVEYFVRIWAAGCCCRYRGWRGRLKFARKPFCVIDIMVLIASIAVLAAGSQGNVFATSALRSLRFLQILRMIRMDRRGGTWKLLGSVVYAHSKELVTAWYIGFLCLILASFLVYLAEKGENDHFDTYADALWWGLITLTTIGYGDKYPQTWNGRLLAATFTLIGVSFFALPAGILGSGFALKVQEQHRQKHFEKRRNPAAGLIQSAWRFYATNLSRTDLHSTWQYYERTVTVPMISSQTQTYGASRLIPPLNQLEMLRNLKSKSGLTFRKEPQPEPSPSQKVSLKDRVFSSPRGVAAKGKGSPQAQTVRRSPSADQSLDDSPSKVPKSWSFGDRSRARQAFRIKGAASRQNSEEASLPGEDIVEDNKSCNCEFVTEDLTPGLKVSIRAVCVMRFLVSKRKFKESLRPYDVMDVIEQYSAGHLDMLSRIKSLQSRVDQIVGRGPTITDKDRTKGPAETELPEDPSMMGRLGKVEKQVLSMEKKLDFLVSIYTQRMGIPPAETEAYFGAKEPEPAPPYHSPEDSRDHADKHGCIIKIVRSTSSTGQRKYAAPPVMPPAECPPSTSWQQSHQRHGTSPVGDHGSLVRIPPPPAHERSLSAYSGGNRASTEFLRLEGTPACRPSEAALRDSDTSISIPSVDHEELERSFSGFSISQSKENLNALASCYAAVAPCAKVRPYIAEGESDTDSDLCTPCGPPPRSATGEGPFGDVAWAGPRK
# KCNQ2 block baseline = also measured in KCNQ2 block; calls as there; B-score; measured here: initial fluorescence intensity artifact check;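 brightness before thallium and not channel activity; 0 = typical well and far values either way flag optical interference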
# * = called active by the depositor; i = inactive. The list is partial; rates above refer to the full screens.
KCNQ2 block | KCNQ2 block baseline | structure
i | 0.63 | COc1ccc(NC(=O)CCNC(=O)Cn2ccc3ccccc3c2=O)cc1Cl
i | 0.02 | Cc1ccc(C(=O)Nc2ccccc2Oc2ccccc2)cc1[N+](=O)[O-]
i | 1.7 | Cc1cc(/C=C2\SC(=S)NC2=O)c(C)n1C
i | 0.54 | NC(=O)C1CCN(C(=O)c2cccc(S(=O)(=O)N3CCc4ccccc4C3)c2)CC1
i | -1 | CN1C(=O)Cn2c1nc1ccccc12
i | -2.3 | Fc1ccc(-c2nc3c(-c4ccc(F)cc4)cnn3cc2CCN2CCOCC2)cc1
i | 1.2 | Cc1cccc(N2CCN(CC(O)COc3ccc(Cl)cc3)CC2)c1 (stereo not drawn)
i | 0.65 | COc1ccc(OC)c(-n2c(SCC(=O)Nc3cc(C)on3)nnc2-c2c[nH]c3ccccc23)c1
i | -1.2 | CSCC[C@H](NC(=O)[C@@H]1Cc2ccccc2CN1)C(=O)Nc1ccc2c(c1)OCCO2
i | -1.3 | Nc1c(C(=O)Nc2ccc(F)cc2)sc2nc(-c3ccco3)ccc12
i | 0.09 | COCCCNC(=S)NNC(=O)c1ccc2c(c1)OCO2
i | 0.17 | CCCCOC(=O)Nc1cccc(C(C)=O)c1
i | -1.2 | CCOc1ccc(N)c(SSc2cc(OCC)ccc2N)c1
i | 0.41 | O=C(Cc1ccccc1)NNC(=S)Nc1ccc(Cl)cc1
i | 1.4 | COc1ccc(-n2c(C)nc(N)c2C(=O)c2ccccc2)cc1
i | 3.9 | Nn1cnnc1SCC(=O)Nc1ccc2c(c1)OCO2
i | 0.08 | CN1C2CCC1/C(=C\c1ccccc1Cl)C(=O)/C2=C\c1ccccc1Cl
i | -0.11 | CCOC(=O)c1c(N)sc2c(NC(C)=O)cccc12
i | -0.24 | CC(=O)N1CC(C)c2scc(C)[n+]2-c2ccccc21 (stereo not drawn)
i | 0.29 | Cc1cc(=O)[nH]c(N/N=C/c2ccc(OC(=O)c3cccnc3)cc2)n1
i | -1.5 | Cc1ccccc1OCC(=O)NC(=S)Nc1cccc2cc(O)ccc12
i | 0.47 | CC(C)CC1c2[nH]c3ccccc3c2CCN1C(=O)CCC(=O)N(C)C (stereo not drawn)
i | 0.86 | Cc1ccc(NC(=O)CN2CCc3cc4c(cc3C2C)OCCCO4)cc1 (stereo not drawn)
i | 0.29 | O=C(CCCN1C(=O)c2cccc3cccc(c23)C1=O)NCc1cccnc1
i | -0.38 | CCc1ccc(Nc2cnn(-c3nc4ccccc4s3)c(=O)c2Cl)cc1
i | 1.2 | Cc1ccc(-c2nnn(CC(=O)N(CCO)C(C(=O)NC3CCCC3)c3ccc(F)cc3)n2)o1 (stereo not drawn)
i | 1.4 | CC(C)OC(=O)Cn1c(-c2ccccc2)c(-c2ccccc2)nnc1=O
i | -0.72 | COC(=O)c1ccc(NC(=S)N2CCN(Cc3cccc(C)c3)CC2)cc1
i | 0.52 | O=C(COC(=O)C1CCC1)NC(=O)c1ccccc1
i | -1.5 | Cc1ccccc1OCCSc1nc2ccccc2n1CCC(=O)O
i | -0.02 | CN(C)S(=O)(=O)c1cccc(C(=O)Nc2ccccc2N2CCCCC2)c1
i | 0.06 | CCOC(=O)CSc1ncc(OC)c(Sc2ccc(OC)cc2)n1
i | 2.4 | O=C(N/N=C/c1cc2cc3c(cc2nc1Cl)OCCO3)c1ccccc1O
i | 0.82 | COc1ccc(N2CCN(S(=O)(=O)CC34CCC(CC3=O)C4(C)C)CC2)cc1 (stereo not drawn)
i | -2 | COCCCNCC(O)COc1cccc2[nH]c(C)cc12 (stereo not drawn)
i | 0.84 | Cc1ccc(S(=O)(=O)N2CCC(C(=O)NCCCN3CCOCC3)CC2)cc1C
i | -0.89 | CC(OC(=O)CCCN=C1NS(=O)(=O)c2ccccc21)C(=O)N(C)c1ccccc1 (stereo not drawn)
i | 0.07 | O=S(=O)(Nc1ncccc1O)c1ccc(Cl)cc1
i | 1.2 | COC(=O)c1ccc(COC(=O)[C@@H]2CC(O)CN2S(=O)(=O)c2ccccc2[N+](=O)[O-])cc1 (stereo partly drawn)
i | -0.82 | COc1ccc(S(=O)(=O)Nc2c(NC3CCCCC3)c3ccccc3oc2=O)cc1
i | 0.44 | CCOC(=O)c1c(C=O)c(C)n(Cc2ccc(C)cc2)c1C
i | 0.55 | CC(=O)Nc1ccc(/C=C/C(=O)c2ccccc2)cc1
i | -0.3 | CC1CCCC(C)N1C(=O)c1ccc2c(c1)S(=O)(=O)c1ccccc1C2=O (stereo not drawn)
i | 0.05 | CSC1=NCCN1S(=O)(=O)c1ccc(Cl)cc1
i | 0.38 | COc1ccc(Br)c2oc(S)cc(=O)c12

# An excerpt from above in order of length of the SMILES, highest first.
KCNQ2 block | KCNQ2 block baseline | structure
i | 1.2 | COC(=O)c1ccc(COC(=O)[C@@H]2CC(O)CN2S(=O)(=O)c2ccccc2[N+](=O)[O-])cc1 (stereo partly drawn)
i | -0.3 | CC1CCCC(C)N1C(=O)c1ccc2c(c1)S(=O)(=O)c1ccccc1C2=O (stereo not drawn)
i | 0.84 | Cc1ccc(S(=O)(=O)N2CCC(C(=O)NCCCN3CCOCC3)CC2)cc1C
i | 0.06 | CCOC(=O)CSc1ncc(OC)c(Sc2ccc(OC)cc2)n1
i | -2 | COCCCNCC(O)COc1cccc2[nH]c(C)cc12 (stereo not drawn)
i | 0.05 | CSC1=NCCN1S(=O)(=O)c1ccc(Cl)cc1

# (further entries)
KCNQ2 block | KCNQ2 block baseline | structure
i | 2.4 | Cc1cc(C)cc(OCC(=O)NC(C)c2ccccc2)c1 (stereo not drawn)
i | -2.7 | COc1cc(-c2nc(CN3CCN(c4ncccn4)CC3)c(C)o2)ccc1F
i | -0.35 | CC1CCN(C(=O)CCN2C(=O)/C(=C/c3cccs3)SC2=S)CC1
i | -0.69 | COc1ccc(/C=C(\NC(=O)c2ccc(OC)cc2)C(=O)Nc2ccc(C(=O)O)cc2)cc1
-7.5* | 0.06* | C/C=C/c1ccc(OCCCCOc2ccccc2C(C)=O)c(OC)c1
i | -1.2 | CCn1c(/C=C/Nc2ccccc2)[n+](CC)c2cc(Cl)c(Cl)cc21
i | -0.09 | CCOC(=O)c1ccccc1NC(=O)COC(=O)c1cc([N+](=O)[O-])ccc1N1CCOCC1
i | 0.21 | CC(C)(C)OC(=O)N1CCC(c2c(C(=O)NCC3CCN(C4CCCC4)C3)cnn2-c2ccccc2Cl)CC1 (stereo not drawn)
i | -1.1 | COc1cccc(NS(=O)(=O)c2ccc3[nH]cc(C(=O)N(C)Cc4ccco4)c(=O)c3c2)c1
i | 0.16 | CCn1c(C)csc1=NC(=O)c1ccccc1
i | 2 | Nc1cc(=O)nc(SCC(=O)N2CCN(c3ccccc3)CC2)n1-c1ccccc1
i | -0.01 | COc1cc(CN2CCN(Cc3ccc([N+](=O)[O-])cc3)CC2)c([N+](=O)[O-])cc1OC
i | -1.2 | Cc1ccc(S(=O)(=O)N2CCOCC2)cc1C(=O)N1CCCC1
i | 0.78 | COC(=O)c1cccc(N(C(=O)CNC(=O)c2cccs2)C(C(=O)NCC2CCCO2)c2ccc(OC)c(OC)c2)c1 (stereo not drawn)
i | 1.5 | Cc1ccnc(NC(=O)c2ccc3c(c2)OCO3)c1

# Gathered by group, the compounds so far containing an aryl thioether with sulfur outside any ring (five)
KCNQ2 block | KCNQ2 block baseline | structure
i | 0.65 | COc1ccc(OC)c(-n2c(SCC(=O)Nc3cc(C)on3)nnc2-c2c[nH]c3ccccc23)c1
i | 3.9 | Nn1cnnc1SCC(=O)Nc1ccc2c(c1)OCO2
i | -1.5 | Cc1ccccc1OCCSc1nc2ccccc2n1CCC(=O)O
i | 0.06 | CCOC(=O)CSc1ncc(OC)c(Sc2ccc(OC)cc2)n1
i | 2 | Nc1cc(=O)nc(SCC(=O)N2CCN(c3ccccc3)CC2)n1-c1ccccc1

# The listing continues:
KCNQ2 block | KCNQ2 block baseline | structure
i | -0.29 | C=CCn1c(SCC(=O)Nc2ccc(OC)cc2)nc2ccccc2c1=O
i | -0.02 | Cc1cc(O)c(C=Nc2ccc(N3CCOCC3)cc2)c(C)c1Cl
i | 0.43 | CCCCNCCOCCOc1ccc(Cl)cc1Br
i | -0.44 | CCc1ccc(NC(=O)c2cc(-c3ccc4c(c3)OCO4)on2)cc1
i | 1.3 | CCOC(=O)c1c(NC(=O)CSc2nncn2C)sc(C)c1C
i | 0.48 | CC(C)(C)c1ccc(C(=O)NCCCNC(=O)c2ccco2)cc1
i | 0.68 | Cc1ccc(C(=O)N(Nc2nc3ccccc3s2)C(=O)c2ccc(C)cc2)cc1
i | -0.33 | O=C(Cc1ccc(Br)cc1)N1CCCC1
i | -2.3 | COC(=O)c1ccc(Cn2nc(C)cc2C)cc1
i | 2.1 | O=C(c1cccc(S(=O)(=O)N2CCCCC2)c1)N1CCN(c2ccccc2)CC1
i | -1.6 | CCCn1c(N)c(N(CCOC)C(=O)c2cc(S(=O)(=O)N3CCCCCC3)ccc2OC)c(=O)[nH]c1=O
i | 1.4 | CCN(CC)CCCNC(=O)CNC(=O)c1nn(-c2ccc(OC)cc2)c(=O)c2ccccc12
i | 1.8 | CSc1oc(-c2ccccc2)nc1C(N)=O
i | 4.4 | O=S(=O)(c1ccccc1)c1nc(-c2ccco2)oc1NCCCn1ccnc1
i | -1.1 | COc1ccccc1C1CCN(C(=O)c2cnn(-c3ccccc3)c2C)CC1
i | 0.39 | O=C(CN(Cc1ccc(F)cc1)C(=O)CCC(=O)Nc1nccs1)NCc1ccccc1
i | 0.06 | Cc1ccccc1OCc1nc2ccccc2n1C
i | 0.52 | O=C(Nc1cccc(C(F)(F)F)c1)N1CCC(c2nc(-c3ccc(F)cc3)no2)CC1
i | 0.39 | CCOc1ccc(C2C(C(=O)c3ccco3)=C(O)C(=O)N2CCCn2ccnc2)cc1OCC (stereo not drawn)
i | 0.68 | Cc1sc(NC(=O)c2ccccc2)c(C(=O)NC(C)C)c1C
i | -0.27 | CC(=O)NCCn1c(SCC(=O)NCCC2=CCCCC2)nc2ccccc2c1=O
i | -1 | O=C1S/C(=C/c2ccc(N3CCOCC3)o2)C(=O)N1Cc1c(F)cccc1Cl
i | -0.5 | CC(CC(=O)N1CCc2ccccc21)c1ccccc1 (stereo not drawn)
i | 1.5 | O=C(c1cccs1)N(Cc1cc2ccccc2[nH]c1=O)CC1CCCO1 (stereo not drawn)
i | 1.8 | COc1ccc(S(=O)(=O)N/N=c2\oc3c(OC)cccc3cc2S(=O)(=O)c2ccc(C)cc2)cc1OC
i | -1.4 | O=C(Cc1ccc(Br)cc1)N1CCN(c2ccccc2)CC1
i | -1.2 | CCc1ccc(N2CC(C(=O)Nc3cccnc3)CC2=O)cc1 (stereo not drawn)
i | 0.55 | Cc1ccc(/C=C2\SC(=S)N(c3cccnc3)C2=O)o1
i | -0.36 | COc1ccc(NC(=O)CSc2ncnc3c2cnn3CCc2ccccc2)cc1
i | 0.57 | COc1ccc(CCNC(=O)c2ccc(CSc3ccccc3)o2)cc1
i | -1.6 | CCC(C)(C)C1CCc2nc3ccccc3c(C(=O)OC(C)C(=O)Nc3c(C)n(C)n(-c4ccccc4)c3=O)c2C1 (stereo not drawn)
i | 0.76 | COc1ccc(N2CCN(CC(O)COc3ccc(C)cc3C)CC2)cc1 (stereo not drawn)
i | -0.28 | O=C(CCn1c(=O)c2ccccc2n(CC(=O)N2CCN(c3ccccc3)CC2)c1=O)NCc1ccco1
i | -0.39 | Cc1ccccc1C(=O)Nc1c(C)[nH]c(=O)[nH]c1=O
i | -1 | Cc1cc(C(=O)Nc2c(C)n(C)n(-c3ccccc3)c2=O)cs1
i | -0.04 | Cc1cc(C)n(-c2cc(O)c(-n3nc(C)cc3C)cc2O)n1
i | 1.4 | Cn1cc(S(=O)(=O)NCc2cccs2)c(=O)n(C)c1=O
i | -0.12 | CCc1ccc(-n2c(=S)sc3c(=O)n(-c4ccccc4OC)c(=S)[nH]c32)cc1
i | 2 | O=C(c1ccc(CNS(=O)(=O)c2ccccc2)cc1)N1CCN(Cc2ccccc2)CC1
i | -0.13 | O=C(c1c[nH]c(=O)n(-c2ccccc2)c1=O)N1CCc2ccccc21
i | -1.8 | CC[C@H](C)[C@H](NC(=O)c1ccccc1)C(=O)Nc1ccc(S(=O)(=O)Nc2cc(C)nc(C)n2)cc1
i | 0.31 | C/C(=N/NC(=O)c1cc(-c2ccc(Br)s2)[nH]n1)c1ccco1
i | -0.35 | CN(c1ccccc1)S(=O)(=O)c1ccc(C(=O)NCc2cccs2)cc1
i | -0.85 | Cc1ccc(S(=O)(=O)N2CCOCC2)cc1NC(=O)c1cc2c(s1)CCC2
i | -0.38 | CCOc1ccc(CCNS(=O)(=O)c2ccc3c(c2)NC(=O)CO3)cc1OCC
i | 0.39 | CCn1c(N2CCN(S(=O)(=O)c3ccccc3C(F)(F)F)CC2)nc2ccccc21
i | -0.14 | COc1ccc(C(=O)NC(=S)Nc2ccccc2N2CCN(S(C)(=O)=O)CC2)cc1OC
i | 1.4 | CC(C)C(OC(=O)CCC(=O)Nc1nccs1)C(=O)NC1CCCCC1 (stereo not drawn)
i | 0.39 | CS(=O)(=O)c1ncc(Cl)c(C(=O)Nc2ccc(OC(F)F)cc2)n1
i | 1.3 | CCn1cc(CNC(=O)c2ccc(Cl)c([N+](=O)[O-])c2)c(C)n1
i | 0.07 | Cc1nc2ccccc2nc(C)c1=NO
i | 0.38 | C=CCSc1nnc(NC(=O)COc2ccccc2)s1
i | 0.97 | CCCS(=O)(=O)N1CCCC(C(=O)NCCN(CC)c2ccccc2)C1 (stereo not drawn)
i | 0.25 | COc1ccc2c(C)cc(N3CCCCCC3)nc2c1
i | -1.1 | CCC(=O)n1nc(-c2ccccc2)nc1SCC(=O)Nc1ccc(C)cc1
i | 0.28 | Cc1ccc(CNC(=O)c2ccc(N3CCC4(CC3)CC(c3ccccc3)=NO4)c(NC(=O)c3ccc(Br)cc3)c2)cc1
